Compound activity as filed in PubChem BioAssay.
Cruzain inh noDet = qHTS Assay for Promiscuous and Specific Inhibitors of Cruzain (without detergent) | Potency, µM, inactives show max response, negative = inhibition, actives largely listed as inhibitors | 200,000 compounds, 2.3% hits | purified cruzain, Z-FR-AMC fluorescence, no detergent | Cruzipain (Trypanosoma cruzi), P25779; active = well fitted curve in the direction sought with a large enough effect; inconclusive = small, poorly fitted or top-dose-only effect, or another doubt; inactive = no such curve, though single readings can be large; an effect the other way counts as inactive or inconclusive;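 also: plate controls were enzyme without inhibitor for no effect and buffer without enzyme for full effect; nearly all actives have a fitted effect of over 40% in size; top concentration of the series not given in the record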
Target sequence (P25779 123-467 limits assumed): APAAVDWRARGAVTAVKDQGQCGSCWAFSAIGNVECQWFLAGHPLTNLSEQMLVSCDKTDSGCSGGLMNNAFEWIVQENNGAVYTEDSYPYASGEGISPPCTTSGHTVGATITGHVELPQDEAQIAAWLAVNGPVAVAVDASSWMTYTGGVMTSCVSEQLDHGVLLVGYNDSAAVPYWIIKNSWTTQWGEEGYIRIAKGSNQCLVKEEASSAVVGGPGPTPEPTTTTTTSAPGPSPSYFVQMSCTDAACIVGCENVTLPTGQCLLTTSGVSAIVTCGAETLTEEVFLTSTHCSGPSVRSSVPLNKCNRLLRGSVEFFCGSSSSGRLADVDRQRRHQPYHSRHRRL
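Purified cruzain at 1.5 nM, pre-incubated 15 min with compound at room temperature in 100 mM sodium acetate pH 5.5, 5 mM DTT, 0.00005% Triton X-100. Reaction started with 2 uM Z-FR-AMC; AMC fluorescence increase over 60 s gives rate.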
SARS PLpro yeast = qHTS of Yeast-based Assay for SARS-CoV PLP; S. cerevisiae expressing SARS-CoV PLpro, growth rescue; control for the full effect not named in the record; Potency, µM (titrated, usually from 32.9 µM), without a hit: top-dose activity, positive = growth rescue; 330,000 compounds, 0.19% hits; also: 0% is about no effect; nearly all actives have a fitted effect of over 55% in size; growth read by luminescence after 48 h
Cruzain inh Det = qHTS Assay for Promiscuous and Specific Inhibitors of Cruzain (with detergent). Cruzipain (Trypanosoma cruzi), P25779. purified cruzain, Z-FR-AMC fluorescence, 0.01% Triton. Potency, µM, without a hit: max response, negative = inhibition, usual class: inhibitors. 200,000 compounds, 0.43% hits. AID 1478, 2009; active = well fitted curve in the direction sought with a large enough effect; inconclusive = small, poorly fitted or top-dose-only effect, or another doubt; inactive = no such curve, though single readings can be large; an effect the other way counts as inactive or inconclusive;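 also: plate controls were neutral wells for no effect and buffer without enzyme for full effect; nearly all actives have a fitted effect of over 40% in size; top concentration of the series not given in the record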
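Cruzain (1.5 nM) preincubated 15 min at RT with compound in 100 mM sodium acetate pH 5.5, 5 mM DTT, 0.01% Triton X-100. Reaction started with 2 uM Z-FR-AMC; AMC fluorescence (ex 360/em 450 nm) change over 60 s gave rate.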
MARV entry inh = qHTS for inhibitors of binding or entry into cells for Marburg Virus; Marburg virus pseudotyped entry inhibition, cell reporter; control for the full effect not named in the record; about a third of the inactives were read at about 46 µM; Potency, µM (titrated, usually from 37.8 µM), for the others: top-dose activity change, negative = inhibition, most hits filed as inhibitors; 300,000 compounds, 1.8% hits; active = well fitted inhibition curve with a large enough effect; inconclusive = small, poorly fitted or top-dose-only effect, or effect the other way; inactive = flat fitted curve, though single readings scatter; tested in HEK293 cells; about a fifth of its hits are not listed in these tables; also: % is scaled to controls: 0 for no effect and ±100 for the full control effect; luciferase read-out
NS1 inh = qHTS Assay for Inhibitors of Influenza NS1 Protein Function | 270,000 compounds, 0.4% hits | S. cerevisiae slowed by influenza A NS1, growth recovery by OD600 | Potency, µM (series often up to 46.1 µM), without a hit: at the highest dose activity, positive = more growth; also: actives are rising curves; nearly all actives have a fitted effect of over 50% in size
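S. cerevisiae expressing influenza A NS1, grown in glucose, washed, then diluted 1:100 into pH 6.0 -URA galactose medium with 23 nl compound. Growth recovery read as OD600; NS1-free strain serves as control.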
LASV entry inh = qHTS for Inhibitors of binding or entry into cells for Lassa Virus; Lassa virus pseudotype entry inhibition, cell reporter; control for the full effect not named in the record; Potency, µM (titrated, usually from 37.9 µM), for inactives: top-dose activity change, negative = inhibition, hits mostly inhibitors; 300,000 compounds, 1.2% hits; AID 540256, 2011; active means well fitted inhibition curve with a large enough effect; inconclusive means small, poorly fitted or top-dose-only effect, or effect the other way; inactive means flat fitted curve, though single readings scatter; tested in HEK293 cells; also: % is scaled to controls: 0 for no effect and ±100 for the full control effect; nearly all actives have a fitted effect of over 50% in size; luciferase read-out
RE007 growth inh = qHTS Assay for Inhibitors of the HIV-1 protein Vpr; S. pombe RE007 Vpr strain, BacTiter-Glo ATP luminescence, 24 h; control for the full effect not named in the record; Potency, µM (series often up to 92.2 µM), for the others: at the highest dose activity change, negative = less growth; 360,000 compounds, 0.21% hits; AID 651644, 2012; active = well fitted falling curve with a large enough effect; inconclusive = small, poorly fitted or top-dose-only effect; inactive = no such curve, though single readings can be large or run the other way;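 also: % is scaled to controls: 0 for no effect and ±100 for the full control effect; nearly all actives have a fitted effect of over 50% in size; the assay follows cell death caused by Vpr and the record does not say whether a fall means rescue or toxicity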
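Fission yeast RE007 carrying one integrated HIV-1 vpr copy, seeded at OD 0.01 in PMG+AL medium with 23 nL pinned compound. Grown 24 h at 30 degrees; viability read by BacTiter-Glo luminescence after 5 min.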
StopGo reporter = High Throughput Screening for Foot and Mouth Disease Virus Antivirals; human cells with a luciferase reporter of 2A StopGo recoding; control for the full effect not named in the record; Potency, µM (titrated, usually from 57.9 µM), without a hit: at the highest dose signal change, negative = less light; 410,000 compounds, 1.2% hits; AID 1159524, 2015; active = well fitted falling curve with a large enough effect; inconclusive = small, poorly fitted or top-dose-only effect; inactive = no such curve, though single readings can be large or run the other way; tested in HEK293T cells; also: % is scaled to controls: 0 for no effect and ±100 for the full control effect; nearly all actives have a fitted effect of over 45% in size; luciferase light after 4 h
* marks the source's active call; other numbers are inactive results; ? = inconclusive; / = not tested or not shown; & = joins results of further samples; [ ] = another dose, or the depositor's remark. Unless noted, calls follow the shape of the dose curve; as a rule, active means well fitted rising curve with a large enough effect; inconclusive means small, poorly fitted or top-dose-only effect; inactive means no such curve, though single readings can be large or run the other way. Potency is read from the fitted curve at half-maximal effect. An unsorted share of the library (roughly 4.5% active in at least one column).

entry	SMILES	Cruzain inh noDet	SARS PLpro yeast	Cruzain inh Det	MARV entry inh	NS1 inh	LASV entry inh	RE007 growth inh	StopGo reporter
1	Cc1ccc(Cl)cc1NC(=O)CC1NC2CCCCC2NC1=O (stereo not given)	/	0.8%	/	/	6.0%	/	-8.3%	3.5%
2	Cc1ccc(NC(=O)C2CCN(C(=O)c3cccs3)CC2)c(C)c1	/	0.0%	/	-18.1%[46.1 µM]	5.2%	/	-14.9%	6.5%
3	CCOc1ccc2nc(SCC(=O)NCc3ccc(OC)cc3)[nH]c2c1	/	-0.1%	/	/	4.2%	/	-3.1%	-2.3%
4	CC1=NN(C(C)C)C(=O)C1	11.5%	-0.2%	-1.1%	-29.7%	6.4%	3.5%	10.8%	4.0%
5	CCN(CC)C(=O)CCNS(=O)(=O)c1ccc(C)cc1	-6.0%	2.6%	4.6%	0.8%	5.6%	12.8%	14.7%	18.9%
6	CCN1CCN(C(=O)c2cc3c(s2)-c2c(C)cccc2OC3)CC1	/	-7.4%	/	/	6.7%	/	-3.1%	48.6%[activator]
7	O=C(Nc1ccccc1)Nc1cccc2cccnc12	-6.1%	-28.0%	-1.0%	?	-136.7%	?	-26.9%	19.8%
8	COc1ccccc1-c1coc2cc(OCC(=O)OCc3ccccc3)ccc2c1=O	-29.8%	-8.8%	-7.6%	23.2%	?	11.3%	-16.6%	0.0%
9	CCN(CC)S(=O)(=O)c1ccc2c(c1)N(CC(=O)N1CCC(C(N)=O)CC1)C(=O)CO2	/	-1.3%	/	/	-1.3%	/	1.2%	3.9%
10	O=C(CCn1cnnn1)Nc1cccc(F)c1	/	0.4%	/	-0.9%	/	5.2%	1.4%	-3.0%
11	CC1CCCCN1CC(=O)Nc1ccccc1Sc1ccccc1 (stereo not given)	15.8%	-7.6%	-1.8%	-8.0%	4.5%	-5.4%	13.3%	-1.7%
12	COc1ccc(C(=O)CSc2ccc(-c3ccccc3)nn2)cc1	1.5%	-15.4%	-6.0%	-1.0%	-14.7%	0.5%	-14.9%	-25.6%
13	Cc1ccccc1CNC(=O)CCC(=O)N1CC2CCCN2c2ccccc21 (stereo not given)	-12.5%	/	-4.9%	/	/	4.3%[46.1 µM]	/	-19.3%
14	COc1cccc(NP2(=O)OCC(C)([N+](=O)[O-])CO2)c1 (stereo not given)	/	/	/	1.5%	/	6.8%	15.6%	-12.3%
15	COc1cc(NC(=O)CSc2ncccc2C(=O)OC(C)C)cc(OC)c1	-4.0%&1.5%	-7.5%	-0.7%&-1.8%	-25.7%&-25.7%	-2.3%	0.6%[46.1 µM]	4.9%	-25.4%&0.0%
16	O=C(Nc1ccc(C(F)(F)F)cn1)Nc1cccs1	/	0.5%	/	20.6%	2.5%	?	3.7%	30.7%[activator]
17	COc1ccc2cc(C(=O)Nc3c(C)n(C)n(-c4ccccc4)c3=O)sc(=O)c2c1OC	/	-2.1%	/	/	-1.1%	/	6.9%	-16.6%
18	CCCCOc1ccc(C(=O)N/N=C/c2cn[nH]c2-c2ccc(OC)c(OC)c2)cc1	?	-25.8%	-9.6%	?	?	-4.3%	12.6%	?
19	COc1ccc2nc(NC(=O)CCc3nc(-c4ccccc4F)no3)sc2c1	7.94µM*	?	0.4%	-15.4%	-4.2%	0.1%	-23.7%	-1.0%
20	Cc1ccc(S(=O)(=O)Nc2ccc(-c3nnc(SCC#N)n3C)cc2)cc1	11.0%	3.7%	4.8%	?	6.2%	-0.5%	16.7%	-3.9%
21	CN1CCN(c2nc3c(c(=O)[nH]c(=O)n3C)n2Cc2ccc(Cl)cc2)CC1	/	1.0%	/	/	3.5%	/	-11.1%	-18.2%
22	Cc1ccc(S(=O)(=O)/N=C(\CCl)N2CCOCC2)cc1	-0.6%	-33.7%	-0.2%	?	-15.1%	?	/	25.1µM*
23	Cc1cnc(C(=O)OCC(=O)c2ccccc2)cn1	/	0.5%	/	-4.7%[46.1 µM]	/	3.3%	4.3%	-3.7%
24	CCN(CC(=O)Nc1c(F)cccc1F)C(=O)/C=C/c1ccc2c(c1)OCO2	/	0.2%	/	?	/	?	35.5%	37.4%[activator]
25	COc1ccc(N(CC(=O)NCc2cccnc2)S(=O)(=O)c2ccc(C)c([N+](=O)[O-])c2)cc1	/	0.5%	/	-4.7%[46.1 µM]	-10.0%	-13.2%[46.1 µM]	-12.0%	25.8%
26	CCN(CC)C(=O)CSc1nc(-c2ccc(C)cc2)nc2c1COC(C)(C)C2	?	3.4%	-2.5%	-1.7%	1.3%	3.5%	0.9%[3.69 µM]	-13.8%
27	CC1(C(=O)O)CCC(C(=O)NNC(=O)c2ccccc2O)C1(C)C (stereo not given)	/	-0.2%	/	1.5%	3.9%	/	10.4%	-12.5%
28	O=C(Cc1ccccc1)NC1CCN(S(=O)(=O)c2cccc(F)c2)CC1	-4.1%	3.8%	2.2%	10.3%	-1.5%	9.8%	8.4%	12.4%
29	Cc1c(C(=O)N(C)c2cccc(C(F)(F)F)c2)sc2nc3n(c(=O)c12)CCCCC3	?	/	-12.1%	/	/	3.8%[46.1 µM]	/	-26.5%
30	CN(C)S(=O)(=O)c1cccc(NC(=S)NC2CCCCC2)c1	/	0.9%	/	-26.3%[46.1 µM]	/	?	6.5%	37.1%[activator]
31	Cc1cc2c(SCC(=O)N3CCN(c4ccccc4)CC3)ncnc2s1	/	0.0%	/	?	/	-23.9%	5.0%	-14.1%
32	COc1ccc(N2C(=O)c3ccccc3C2O)cc1 (stereo not given)	/	-4.1%	/	?	-7.0%	-1.6%[46.1 µM]	16.8%	22.5%
33	CC(C)c1cnc2c(c1SCC(=O)Nc1ccc(C(N)=O)cc1)c(=O)n(C)c(=O)n2C	3.7%	/	2.6%	/	/	?	/	1.2%
34	CCC1=NN(C(=O)Cc2ccc(OC)c(OC)c2)C(O)(C(F)(F)F)C1 (stereo not given)	5.3%	7.7%	1.3%	-17.1%	-3.6%	-2.8%	-1.2%	-11.9%
35	Cc1nnc(NC(=O)C2c3ccccc3Oc3ccccc32)s1	8.2%	-0.4%	-4.6%	0.8%	-6.1%	-8.2%	-1.5%	-13.3%
36	COCC(=O)N1CCC(Oc2ccc(C(=O)N(C)C(C)c3ccon3)cc2)CC1 (stereo not given)	/	2.8%	/	23.8%	-1.3%	-13.5%	10.6%	21.7%
37	O=C(Cn1ccc2ccccc2c1=O)NCCC(=O)Nc1ccc2c(c1)OCCO2	-4.9%	3.1%	1.6%	-1.1%&-3.2%	10.1%	0.3%	2.5%	-20.6%
38	CN1CCN(c2ccc(NS(=O)(=O)c3ccc(Cl)cc3)cn2)CC1	/	-0.6%	/	?	0.8%	-19.5%[46.1 µM]	8.3%	10.0%
39	Cc1csc(SCC(=O)Nc2nc(-c3ccccc3)cs2)n1	-18.9%	-13.3%	-5.9%	15.6%	-59.7%	-1.9%	?	5.5%
40	COc1cccc2[nH]c3c(N4CCCCC4)ncnc3c12	-22.5%	14.0%	-10.5%	9.5%	-11.6%	15.4%	-2.8%	2.4%
41	O=C(COC(=O)c1ccc(Cl)nc1)NC(=O)c1ccccc1	/	-1.0%	/	?	-4.1%	-0.8%	0.5%	-11.0%
42	Cc1nnc(SCC(=O)NC2CCCCC2)n(N)c1=O	1.4%	-2.5%	6.2%	11.6%	1.5%	-4.7%	-7.6%	1.2%
43	Cc1ccc2cn[nH]c2c1NC(N)=S	/	0.1%	/	-9.9%[46.1 µM]	/	-2.9%	-12.3%	4.7%
44	CC(=O)Nc1cccc(NC(=O)CSc2nnnn2C)c1	16.2%	-2.2%	6.0%	2.7%	1.3%	/	/	/
45	COc1ccc(-c2nnc(SCC(=O)NC(C)c3ccccc3)o2)cc1OC (stereo not given)	8.2%	4.3%	-0.2%	-17.7%	-14.7%	?	11.7%	-9.7%
46	CS(=O)(=O)c1ccc(C(=O)NCc2ccc(F)cc2)cc1	/	-0.4%	/	18.2%[46.1 µM]	/	-19.1%	15.7%	5.9%
47	O=C(c1ccccc1C(=O)N1CCN(c2ccccc2)CC1)N1CCN(c2ccccc2)CC1	?	-1.0%	0.8%	-2.3%	-23.5%	?	6.9%	-23.5%
48	Cc1ccc(S(=O)(=O)N2CCCC(CCC(=O)NCc3ccccc3F)C2)s1 (stereo not given)	/	0.0%	/	/	-12.8%	/	3.6%	3.6%
49	Cc1cc(C)n(-c2ncc(C#N)cn2)n1	/	0.6%	/	15.8%[46.1 µM]	3.3%	0.2%	-0.3%	-5.4%
50	CCN1CCC(NC(=O)Nc2ccccc2C(=O)OC)CC1	/	-0.3%	/	/	2.1%	/	17.0%	6.3%
51	COc1ccccc1/C=N\NC(=O)c1ccc(COc2ccc(C)c(C)c2)o1	/	/	/	?	/	19.2%[46.1 µM]	9.9%	5.1%
52	O=C(N1CCOCCOc2ccccc2OCCOCC1)C(F)(F)F	/	-0.5%	/	/	5.1%	/	8.5%	3.2%
53	COc1ccccc1C1=Nn2c(nc3sc(C(=O)Nc4ccccc4Cl)c(C)c3c2=O)SC1	-0.9%	/	-7.8%	3.2%[46.1 µM]	/	-21.5%[46.1 µM]	/	-8.2%
54	COc1ccc(NC(=O)CS(=O)CC(=O)N2CCN(C3CCCC3)CC2)cc1 (stereo not given)	/	3.3%	/	?	4.2%	20.8%[46.1 µM]	-0.4%	16.6%
55	CCc1cc2cccc(C)c2nc1SCC(=O)c1ccc(NC(C)=O)cc1	4.0%	?	0.0%	3.6%	6.4%	-23.0%	12.8%	/
56	Cn1c(SCC2CCCO2)nnc1-c1ccncc1 (stereo not given)	5.7%	2.2%	2.9%	14.9%	2.4%	-1.5%	9.1%	9.9%
